Compound activity: PubChem BioAssay, several laboratories
HSV replic up: enhancers of HSV replication in host cells, fold increase, host cell viability. HSV replication augmentation in cells. maximum fold increase. 220,000 tested, 0.005% active;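 active = peak rise of 1.5-fold or more in the series; inconclusive = self-fluorescent or not available for retest; tested in PC3 cells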;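 also: first round at 10 µM; read as green reporter fluorescence; hits show the peak of a series up to 25 µM; 1 = signal of infected wells without compound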
Insulin prom inh: inhibitors of insulin promoter-driven GFP, primary screen, imaging, TRM-6 cells (human fetal islet line), eGFP reporter, cell count; reporter expression induced with tamoxifen; inhibition, % at 2 µM; 130,000 tested, 0.9% active; AID 1273, 2008;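 active = inhibition above the mean plus 3 SD, with well images judged a real hit on visual review, cut at about 60% in these data, passing the limit was not always enough; inconclusive = inhibition over the cutoff but images rejected on review; inactive = inhibition not above the cutoff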
RGS16-Gao HTS: modulators of RGS16 binding to Galphao, primary screen, biochemical, human proteins, multiplexed bead flow cytometry. binding response (% of control), % at 10 µM. bead-based flow cytometry RGS16-Galphao binding, fluorescence; actives lie on both sides. 220,000 tested, 0.38% active. AID 1441, 2008. Regulator of G-protein signaling 16 (Homo sapiens) + Guanine nucleotide-binding protein …;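 active = below 25% or above 175%, edge rows of some plates excepted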;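 also: Galphao activated by GDP with aluminum fluoride before binding; 100% = wells without compound and 0% = beads without RGS; some results beyond the cut were filed as inactive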
PKD1 inh: inhibitors of human PKD1 kinase, biochemical, fluorescence polarization; 200,000 tested, 0.056% active; PKD1 kinase fluorescence polarization assay; inhibition, %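 (about 10 µM by stock and volumes)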; Serine/threonine-protein kinase D1 (Homo sapiens), Q15139;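 active = inhibition of 50% or more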;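 also: controls were vehicle for no effect and a reference inhibitor for full effect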
Target sequence (Q15139 whole entry, looked up): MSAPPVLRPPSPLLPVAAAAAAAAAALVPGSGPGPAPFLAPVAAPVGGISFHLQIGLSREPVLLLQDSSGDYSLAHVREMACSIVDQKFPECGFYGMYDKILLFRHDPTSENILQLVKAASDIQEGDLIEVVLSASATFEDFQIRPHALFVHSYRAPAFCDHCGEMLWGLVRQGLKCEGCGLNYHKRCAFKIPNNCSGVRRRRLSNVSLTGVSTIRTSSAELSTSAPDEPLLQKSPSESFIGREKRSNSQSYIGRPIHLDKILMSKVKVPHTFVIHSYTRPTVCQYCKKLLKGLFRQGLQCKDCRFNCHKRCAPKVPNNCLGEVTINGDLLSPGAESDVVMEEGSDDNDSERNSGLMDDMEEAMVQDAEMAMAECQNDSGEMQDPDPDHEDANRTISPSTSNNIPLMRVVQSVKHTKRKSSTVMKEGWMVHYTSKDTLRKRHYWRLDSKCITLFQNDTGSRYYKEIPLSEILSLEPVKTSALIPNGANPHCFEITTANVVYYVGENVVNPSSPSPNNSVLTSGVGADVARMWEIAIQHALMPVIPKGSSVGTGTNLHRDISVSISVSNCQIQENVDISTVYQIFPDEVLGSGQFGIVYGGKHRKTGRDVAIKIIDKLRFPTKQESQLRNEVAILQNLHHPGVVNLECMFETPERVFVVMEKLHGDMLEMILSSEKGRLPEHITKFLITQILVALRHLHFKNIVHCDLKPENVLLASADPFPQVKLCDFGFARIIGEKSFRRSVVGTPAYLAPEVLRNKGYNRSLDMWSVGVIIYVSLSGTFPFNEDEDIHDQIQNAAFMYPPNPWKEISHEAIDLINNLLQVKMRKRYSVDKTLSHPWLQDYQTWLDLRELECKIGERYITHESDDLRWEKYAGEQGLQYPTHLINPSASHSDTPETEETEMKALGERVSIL
GALR2 agonist: GALR2 receptor agonists, primary screen, cell-based; GALR2-expressing cells, agonist activation read-out; activation, %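 (tested at 5 µM)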; 140,000 tested, 0.48% active;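 active = above mean plus 3 SD of all compounds, about 5% in these data, not always enough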;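 also: 0% = vehicle buffer wells and 100% = reference agonist at full effect; tested in CHO reporter cells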
Insulin prom inh cell count: further read-out of Insulin prom inh, marked with its call; normalized cell count, %; measured here: cell count, toxicity; reference of the scale not given here;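 cells exposed to compound for 48 h; stained nuclei by imaging scaled within each plate; lower means fewer cells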
HSV replic up primary fold: also measured in HSV replic up; calls as there; fold increase; compound at 10 µM; measured here: primary screen fold increase 10 uM; tested in PC3 cells;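 GFP signal in the first replicate; 1 = infected wells without compound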
* marks the source's active call; other numbers are inactive results; i = inactive; u = inconclusive; x = no result given.

SMILES	HSV replic up	HSV replic up primary fold	Insulin prom inh	Insulin prom inh cell count	RGS16-Gao HTS	PKD1 inh	GALR2 agonist
NC(=S)NNC(=O)C12CC3CC(CC(C3)C1)C2	i	0.99	-8.3	87.7	119.4	2.3	-0.6
Cc1ccc(C(=O)NN(CCC#N)C2=NS(=O)(=O)c3ccccc32)cc1	i	0.92	x	x	104.0	-6.1	x
CC1CCc2sc(C(=O)OCC(=O)NCc3ccccc3)cc2C1 (centres undefined)	i	0.82	x	x	95.3	0.7	-1.2
CN(CC(=O)Nc1nccs1)S(=O)(=O)c1ccc(F)cc1	i	0.94	-8.3	65.7	102.7	1.1	-0.3
O=C(NC(Cc1c[nH]c2ccccc12)c1nnc2n1CCCCC2)c1ccccc1Cl (centres undefined)	i	0.98	11.8	116.9	104.1	-6.7	-2.2
COC(=O)C1=C(C)N(C)C(=O)NC1c1cc2c(cc1[N+](=O)[O-])OCO2 (centres undefined)	i	1	8.3	110.9	99.5	-0.9	x
CCCC(=O)OCC(=O)Nc1ccc2[nH]c(=O)[nH]c2c1	i	1.02	-17.6	67.9	101.5	0.4	x
COc1ccc(C(=O)NNc2ccccc2)cc1OC	i	1.2	13.3	119.1	103.6	5.1	-3.6
Cc1ccc(OCc2nc(C#N)c(N3CCCC3)o2)cc1	i	1.03	12.5	75.1	91.2	-10.6	-1.5
CCNc1ccc(S(=O)(=O)N(C)C)cc1NCC(=O)Nc1ccc(F)c(Cl)c1	i	0.87	17.6	128.9	24.5*	-2.5	-1.1
Cc1nsc2c1ccc1ccccc12	i	0.98	x	x	105.3	1.4	x
O=c1c2ccccc2c2ccccc2c(=O)n1-c1ccccc1	i	1	x	x	97.3	-0.6	x
Cc1ccc(NC(=O)c2cc(N3C(=O)C4CC=CCC4C3=O)ccc2N2CCCCC2)cc1 (centres undefined)	i	0.79	-60.0	95.1	169.8	-11.2	-2.8
O=C(O)C1=C(OCc2ccccc2)C(=O)NCC1	i	1.02	-5.6	108.8	92.6	-0.6	x
COc1ccc(N=C2S/C(=C\c3cc(C)n(C)c3C)C(=O)N2C)cc1	i	0.973	14.6	80.5	99.0	-1.3	-1.5
NC(=O)Cn1nc2sc3ccccc3n2c(=O)c1=O	i	1.03	x	x	101.9	x	x
COc1cccc(NC(=O)Cn2c(-c3cncs3)nc3ccccc32)c1	i	0.91	-13.3	95.9	100.2	-5.1	-0.3
N#CCC(=O)N/N=C/c1cn(Cc2ccc(Cl)cc2Cl)c2ccccc12	i	1.2	x	x	99.8	x	x
Cc1cc(C)cc(NS(=O)(=O)c2ccc3[nH]cc(C(=O)NCc4ccco4)c(=O)c3c2)c1	i	0.86	-6.2	208.6	105.3	0.1	-2.3
C=CCSc1nnc2nc3c(nn12)c1cc(C)ccc1n3CC=C	i	0.92	x	x	100.9	0.2	1.8
N/C(=N\N=C\c1ccc(O)c(O)c1)c1nonc1N	i	1.05	x	x	100.5	x	x
O=C(NCc1cccs1)c1cc2c(s1)-c1ccccc1OC2	i	0.92	x	x	113.2	0.6	-1.4
C/C(=N\OCC(=O)Nc1ccccc1Br)c1cccs1	i	0.97	-27.3	142.9	113.1	-3.9	x
O=C(NNC(=O)c1ccco1)c1cccc([N+](=O)[O-])c1	i	0.91	x	x	107.0	-4.0	-2.2
Cc1ccc(Nc2nc(CSc3nnnn3C)cs2)cc1	i	1.02	x	x	93.4	-1.7	-2.1
CS(=O)(=O)c1ccc(C(=O)Nc2ccccc2Cl)cc1	i	0.92	x	x	104.5	x	x
COc1ccc(NC(=O)CCc2nc(-c3ccccc3F)no2)cc1	i	0.92	-15.8	85.9	71.1	2.1	1.1
CCN(CC)C(=O)CSc1ncnc2c1nnn2-c1ccc(F)cc1	i	0.94	-54.5	73.3	102.7	2.0	-2.5
O=C(CSc1ncnc2[nH]ncc12)Nc1cccc(Oc2ccccc2)c1	i	0.87	x	x	101.3	-0.3	x
O=C(CNCc1ccco1)Nc1cc(S(=O)(=O)N2CCOCC2)ccc1N1CCCC1	i	1.16	x	x	106.0	-12.0	x
O=C(Cn1cnc2ccccc21)N/N=C/c1cccs1	i	1	-43.3	101.4	103.1	-6.7	-0.9
Cc1csc(SCCn2c(N3CCCC3)nc3c2c(=O)[nH]c(=O)n3C)n1	i	1.11	-48.7	40.0	103.9	-1.0	-0.9
Cc1nc2nc(-c3ccccc3)nn2c(C)c1Cl	i	0.93	-345.4	20.8	x	-3.6	-1.8
CC(C)(C)n1nc(C2CC2)cc1NC(=O)Nc1ccc(Cl)cc1	i	1.19	x	x	103.8	x	x
Cc1cc(S(=O)(=O)NCC(C)C)ccc1OCC(=O)N1CCOCC1	i	0.92	-50.0	105.6	104.9	-8.3	-3.5
Clc1nc(Nc2ccccc2)nc(Nc2ccccc2)n1	i	0.85	31.2	116.4	99.0	0.1	-0.4
CCOC(=O)C1=C(CN2CCN(CCC#N)CC2)NC(=O)NC1c1ccc2c(c1)OCO2 (centres undefined)	i	0.93	23.5	114.4	115.1	-4.7	x
CCOC(=O)CSC1=Nc2ccccc2C2=NC(CC(=O)NCc3ccccc3)C(=O)N12 (centres undefined)	i	0.81	7.1	118.6	96.3	-6.3	1.4
O=C(NNC(=S)NC1CCCCC1)c1ccc2c(c1)OCO2	i	1.16	x	x	101.6	-2.6	-0.1
COCCNC(=O)[C@H](CSCc1ccccc1)N1Cc2ccccc2C1=O	i	0.82	x	x	101.0	x	x
CCc1cc2c(=O)c(-c3ccc4c(c3)OCCO4)coc2cc1OC(=O)c1ccco1	i	0.89	-27.3	104.3	98.9	-1.0	0.4
O=C(NCc1ccccc1)c1ccc(OC2CSC2)cc1	i	0.89	-137.5	79.9	99.4	-1.8	0.6
COc1ccc(-c2nc(CS(=O)CC(=O)N3CCCC3)c(C)o2)cc1 (centres undefined)	i	0.9	x	x	103.5	4.5	-0.9
COC(=O)c1sccc1NC(=O)CSc1nnnn1-c1ccccc1C	i	0.92	x	x	96.5	-4.9	-1.8
CCCS(=O)(=O)c1nc(S(=O)(=O)c2ccc(C)cc2)c(NCCCN2CCOCC2)s1	i	0.93	-76.9	107.4	120.5	-8.7	-1.3
COc1cccc(NC(=O)Cn2nnc(-c3ccccc3N)n2)c1	i	0.91	19.2	114.4	102.0	6.7	-0.6
CN1CCN(S(=O)(=O)c2ccc(NC(=O)C(C)(C)C)cc2)CC1	i	0.99	17.1	104.3	133.5	0.8	-3.3
O=C(N/N=C/c1cccs1)c1cc(-c2ccncc2)nc2ccccc12	i	0.6	-76.7	15.9	105.8	-7.3	2.6
O=C(CN1CC[n+]2c(-c3cccs3)csc21)c1ccc(Br)cc1	i	1.06	29.4	116.0	99.5	-0.3	-1.4
CCN1CCN(C2=CC3=CC(=C(C#N)C#N)CCC3CC2)CC1 (centres undefined)	u	x	i	92.1	112.2	-4.8	x
Cc1nc(NC(=S)NC(=O)COc2ccccc2Cl)ccc1Br	i	0.8	-20.0	140.9	99.7	-7.3	-1.0
O=C(Nc1ccc(NC(=O)C2CC2)cn1)c1ccccc1Cl	i	0.983	10.3	71.9	82.8	-2.3	-2.6
Cc1sc(N/N=C/c2cccnc2)nc1-c1ccc(Cl)cc1	i	0.72	-20.8	96.0	100.1	-8.1	-1.1
COc1ccc(-c2nnc(SCC(=O)Nc3cccc(Cl)c3)o2)cc1	i	0.87	x	x	129.8	-11.5	-0.6
COc1ccc(CNC(=O)c2ccc(Br)cc2)cc1	i	0.9	x	x	99.7	-0.7	x
N#CC1C(=O)NC(N2CCN(c3ccccc3)CC2)=NC12CCCCC2 (centres undefined)	i	0.94	9.7	121.1	97.2	-5.3	-1.5
Cc1c(C=N)c(O)n(C)c(=O)c1C#N	i	0.76	x	x	95.9	x	x
O=C(O)c1cccnc1SC1CC(=O)N(c2ccccc2)C1=O (centres undefined)	i	0.89	x	x	98.0	x	x
CCOc1ccccc1-n1c(SCC(=O)NC(C)CC)nnc1-c1ccoc1C (centres undefined)	i	1.01	-27.0	66.2	109.0	4.7	-0.4
CC1=C(C(=O)O)N2C(=O)C(NC(=O)c3ccn(C)n3)C2SC1 (centres undefined)	i	0.97	-3.6	132.4	108.3	1.9	-1.5
The list continues.
SMILES	HSV replic up	HSV replic up primary fold	Insulin prom inh	Insulin prom inh cell count	RGS16-Gao HTS	PKD1 inh	GALR2 agonist
COc1ccc(N(CC(=O)NC2CCCC2)C(=O)c2csnn2)cc1	i	1.01	3.5	100.0	103.5	-8.5	-4.9
O=C1/C(=C/c2cccnc2)SC(=S)N1CC1CCCO1 (centres undefined)	i	0.76	27.3	146.3	94.3	-1.3	x
Cc1ccc(NC(=S)NCc2ccc3[nH]c4c(c3c2)CCCC4)cc1	i	0.86	26.8	89.1	109.2	-11.5	-0.9
COc1ccccc1OCCn1c(C(C)O)nc2ccccc21 (centres undefined)	i	1.09	x	x	97.5	-12.4	-0.2
Clc1ccc(CSc2nnc(-c3ccncc3)o2)cc1	i	0.73	x	x	103.0	-0.9	-2.4
CN1CCCN(C(=O)c2cc(-c3ccc(Cl)c(Cl)c3Cl)nc3ccccc23)CC1	i	0.7	x	x	102.0	-4.6	x
COC(=O)c1ccc(NC(=O)c2cc(Cl)ccc2OC)cc1	i	0.92	47.1	136.5	102.0	-1.3	x
COc1cc(C2NC(=O)NC(C)=C2C(=O)OC(C)(C)C)ccc1OCC(=O)O (centres undefined)	i	0.86	52.6	68.2	112.1	-5.5	0.8
CCn1nnc(NC(=O)c2cc3ccccc3o2)n1	i	0.96	15.1	222.0	103.5	-3.5	-3.7
COC(=O)c1ccc(OC(=O)c2ccco2)cc1	i	0.92	x	x	87.3	-6.8	-1.7
Cc1cc(NS(=O)(=O)c2ccc(Nc3nc(-c4ccc(O)cc4)cs3)cc2)no1	i	0.96	-46.1	158.5	95.5	-4.1	-2.8
COc1ccc(NC(=O)Nc2c(C)noc2-c2ccccc2)cc1	i	1.19	x	x	110.8	x	x
CC1CCCN(c2ncnc3c2cnn3-c2ccccc2)C1 (centres undefined)	i	0.83	x	x	110.5	x	x
O=S1(=O)C=C(SCc2ccccc2)Nc2ccccc21	i	0.98	-4.5	160.8	99.5	6.9	-1.3
CCOc1ccc(NC(=O)NCc2cccnc2)cc1	i	1.03	x	x	100.5	4.4	x
CC(C)c1onc(C(=O)N2CCC(C(N)=O)CC2)c1[N+](=O)[O-]	i	1.04	x	x	114.2	x	x
COc1ccc(CCN=C(N)NS(=O)(=O)c2ccc(C)cc2)cc1	i	0.98	x	x	96.4	-13.4	-0.7
O=C(CCc1nc2ccccc2[nH]1)Nc1ccccc1	i	1	0.0	94.2	94.6	-10.6	-0.7
CCCCSc1nnc([C@@H]2CCCN2C(=O)OC(C)(C)C)o1	i	1.13	x	x	110.0	-5.5	-0.2
O=C(O)CCC(=O)Nc1ccc(OCC(=O)O)cc1	i	0.94	x	x	105.6	7.1	-2.6
COc1ccc(NC(=O)Nc2ccc(OC)c(OC)c2)c([N+](=O)[O-])c1	i	0.99	15.6	88.5	93.5	2.5	-2.0

Another view of part of the listing above:
Screens in order – HSV replic up, HSV replic up primary fold, Insulin prom inh, Insulin prom inh cell count, RGS16-Gao HTS, PKD1 inh, GALR2 agonist
- O=C1/C(=C/c2cccnc2)SC(=S)N1CC1CCCO1 (centres undefined)
  i, 0.76, 27.3, 146.3, 94.3, -1.3, x
- COc1ccccc1OCCn1c(C(C)O)nc2ccccc21 (centres undefined)
  i, 1.09, x, x, 97.5, -12.4, -0.2
- CC1CCCN(c2ncnc3c2cnn3-c2ccccc2)C1 (centres undefined)
  i, 0.83, x, x, 110.5, x, x
- CC(C)c1onc(C(=O)N2CCC(C(N)=O)CC2)c1[N+](=O)[O-]
  i, 1.04, x, x, 114.2, x, x
- COc1ccc(N(CC(=O)NC2CCCC2)C(=O)c2csnn2)cc1
  i, 1.01, 3.5, 100.0, 103.5, -8.5, -4.9
- Cc1ccc(NC(=S)NCc2ccc3[nH]c4c(c3c2)CCCC4)cc1
  i, 0.86, 26.8, 89.1, 109.2, -11.5, -0.9
- O=S1(=O)C=C(SCc2ccccc2)Nc2ccccc21
  i, 0.98, -4.5, 160.8, 99.5, 6.9, -1.3
